From PubChem
Mtb H37Rv: M. tuberculosis H37Rv growth inhibitors, H37Rv strain (AID 1626) | inhibition, % at 10 µM, or IC50 in µM where a hit was titrated | M. tuberculosis H37Rv growth inhibition; higher % means a stronger effect | 220,000 tested, 0.95% active;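 active = confirmed in a dose series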;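 also: bacteria incubated seven days before Alamar blue readout; 0% = bacteria only wells and 100% = bacteria with antibiotic wells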
YopH PTP inh: YopH tyrosine phosphatase inhibitors, primary screen, biochemical, fluorescence Ex485/Em525. 140,000 tested, 0.16% active. inhibition, %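 (about 10 µM by stock and volumes)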. AID 898, 2007;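 active = inhibition of 50% or more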;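 also: controls were vehicle for no effect and minimum signal wells for full effect; inactives centre near -20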
Mtb bLac sens: beta-lactam sensitization of Mtb H37Rv, H37Rv | M. tuberculosis H37Rv growth with meropenem, percent inhibition; hits of this screen are not shown here | inhibition, % at 25 µM | 330,000 tested, 0.27% active;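 active = about 74% or more and at least 40 points above the plate without the antibiotic, then above 30% in a dose series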;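 also: growth measured after seven days incubation then overnight dye step; 0% = bacteria only wells and 100% = bacteria with antibiotic; twin plates without the antibiotic show which effects depend on it; some results filed as inactive read as strong as hits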
RecA intein inh: Mtb RecA intein splicing inhibitors, primary screen, biochemical, fluorescence, HTS; Protein RecA (Mycobacterium tuberculosis (strain ATCC 25618 / H37Rv)), P9WHJ3; cell-free RecA intein splicing; inhibition, %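 (about 9 µM by stock and volumes)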; 290,000 tested, 0.75% active; AID 2221, 2009; in the data active = inhibition above about 30%;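 also: 0% = vehicle wells and 100% = reference inhibitor control wells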
Target sequence (P9WHJ3 whole entry, looked up): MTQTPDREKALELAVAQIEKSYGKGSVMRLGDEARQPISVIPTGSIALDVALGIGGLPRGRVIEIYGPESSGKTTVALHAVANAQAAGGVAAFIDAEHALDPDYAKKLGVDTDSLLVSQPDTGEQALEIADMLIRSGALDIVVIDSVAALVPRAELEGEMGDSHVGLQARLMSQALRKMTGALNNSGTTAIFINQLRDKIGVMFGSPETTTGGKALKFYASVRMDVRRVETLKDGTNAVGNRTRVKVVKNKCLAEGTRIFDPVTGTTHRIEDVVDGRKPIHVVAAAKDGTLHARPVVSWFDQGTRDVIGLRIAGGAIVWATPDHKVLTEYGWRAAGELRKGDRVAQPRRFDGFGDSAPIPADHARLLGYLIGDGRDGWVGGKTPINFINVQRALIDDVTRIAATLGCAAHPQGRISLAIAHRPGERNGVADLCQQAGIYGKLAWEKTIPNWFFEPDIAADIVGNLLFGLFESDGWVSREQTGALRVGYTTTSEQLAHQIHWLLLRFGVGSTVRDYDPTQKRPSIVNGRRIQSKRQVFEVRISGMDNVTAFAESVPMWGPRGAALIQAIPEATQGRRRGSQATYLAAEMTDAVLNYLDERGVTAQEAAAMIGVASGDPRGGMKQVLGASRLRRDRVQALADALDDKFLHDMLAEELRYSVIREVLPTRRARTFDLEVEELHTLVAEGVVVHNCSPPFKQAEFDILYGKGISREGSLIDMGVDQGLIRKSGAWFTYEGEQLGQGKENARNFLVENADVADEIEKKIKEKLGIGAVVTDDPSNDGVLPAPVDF
Arbovirus inh: antivirals against arbovirus infection, primary screen, cell-based, full library, 10K replicate subset. inhibition, % at 10 µM. arbovirus infection cell-based antiviral screen. 200,000 tested, 0.37% active;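 active = inhibition from about 30%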;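 also: bluetongue infection of BSR cells; cell survival read as ATP light after 72 h; 0% = infected wells without compound and 100% = uninfected wells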
Arbovirus inh repeat: recorded beside Arbovirus inh, whose call it bears; inhibition, %; measured here: 10K subset replicate screen; many hits read low in the repeat;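 first of two repeat runs on a subset; 0% = infected and 100% = uninfected wells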
* marks the source's active call; other numbers are inactive results; i = inactive; / = not tested or not shown.

SMILES | Mtb H37Rv | YopH PTP inh | Mtb bLac sens | RecA intein inh | Arbovirus inh | others
CS(=O)(=O)n1nc(OC(=O)c2cccc3ccccc23)cc1N | -5% | -33 | 3 | 23 | -11
C/C(=N/NC(=O)c1cc2ccccc2cc1O)C1C(=O)c2ccccc2C1=O | -3% | -30 | 1 | 27 | 4
CCc1nnc(NC(=O)CSc2nc(-c3ccc(OC)cc3)ns2)s1 | 8% | -31 | 0 | 1.7 | -1
O=C(COc1ccc(Cl)cc1)NCCNC(=O)c1ccccn1 | / | / | -6 | -0.9 | /
O=C(CCSc1ccccc1)Nc1nc2c(s1)CCCC2 | 2% | -4 | 87 | / | 4
c1ccc2cc3[nH]c(CN4CCCCC4)nc3cc2c1 | 2% | -14 | 1 | 0.7 | -7 | Arbovirus inh repeat=9
NC(=S)Nc1ncc(CCN2CCOCC2)c(-c2ccc(F)cc2)n1 | -1% | / | -11 | -0.5 | 6
COc1ccc(CCNc2oc(-c3ccccc3OC)nc2C#N)cc1 | 14% | -118 | 1 | 6.7 | -6
O=C(Nc1nnc(C2CC2)o1)c1ccc(S(=O)(=O)N2CCc3ccccc3C2)cc1 | -6% | / | 22 | -1.8 | -17
ClCc1nc2ccccc2n1Cc1ccccc1 | / | / | 81 | 18 | /
O=C(CCCC(=O)OCC(=O)c1ccc(F)cc1)Nc1cc(C(F)(F)F)ccc1Cl | -5% | -7 | -4 | 0.1 | 5
CC(C)(C)c1ccc(S(=O)(=O)N2CCC(NC(=O)c3ccco3)CC2)cc1 | / | / | -1 | -7.2 | /
Cc1oc2c(c1C(=O)NCCCC(=O)O)CCCC2 | -3% | -34 | 11 | -2.8 | 6
COc1cc(C2Nc3ccccc3C(=O)N2c2ccccc2)c(Br)cc1OCC(=O)O (configuration not stated) | -8% | -42 | 3 | -6.5 | 5
Cc1ccc(-n2c(SCC(=O)Nc3ccc4c5c(cccc35)CC4)nc(O)c(C)c2=O)cc1 | -2% | -37 | -14 | -4.0 | 13
CCN(CC)S(=O)(=O)c1ccc(N2CCN(c3cccc(OC)c3)CC2)c([N+](=O)[O-])c1 | 5% | -24 | 3 | 4.1 | 7
CCCCCCC(=O)N1CCN(c2cc3c(cc2F)c(=O)c(C(=O)O)cn3CC)CC1 | 0% | 8 | 64 | 3.3 | /
Cc1ccc(NC(=O)CN2C(=O)C3C4C=CC(C4)C3C2=O)cc1S(=O)(=O)N(C)C (configuration not stated) | -7% | -17 | -3 | -1.5 | -10
CN(C)C(CNC(=O)c1cccc(S(=O)(=O)Nc2ccc(Br)cc2)c1)c1ccco1 (configuration not stated) | / | / | -20 | -0.5 | /
CCOC(=O)N1CCN(c2c(N3CCN(c4cc(C)ccc4C)CC3)c(=O)c2=O)CC1 | 9% | -32 | -1 | 1.3 | -4
O=C1C(=O)N(CCCn2ccnc2)C(c2cccnc2)/C1=C(/O)c1ccc(Br)cc1 (configuration not stated) | / | -10 | / | / | 0 | Arbovirus inh repeat=-2
CC1(OC(=O)CCc2ccccc2)C(=O)C=C2C=C(c3ccsc3)OC=C2C1=O (configuration not stated) | -9% | / | -3 | -1.9 | /
CN1CCCN(c2ccc([N+](=O)[O-])cc2)CC1 | 0% | / | -7 | 1.6 | -9
O=C(c1ccc(F)cc1F)N1CCN(c2n[nH]c(=O)[nH]c2=O)CC1 | 4% | / | -6 | -2.0 | 5
CC(C)OC(=O)CCC(=O)Nc1ccc(F)cc1 | 4% | / | 5 | -2.0 | -3
CCOC(=O)c1cccc(NC(=O)/C=C/c2ccc3c(c2)OCO3)c1 | 66% | -27 | 47 | -2.2 | -33
COCCNC(=O)NC(=O)CN1CCCc2ccccc21 | -4% | / | -8 | -3.6 | 21
COc1ccc(-n2nc(C(=O)NCC(=O)NCc3ccc(F)cc3)c3ccccc3c2=O)cc1 | / | / | 1 | 0.7 | /
O=C(Nc1nccs1)C1CCCN(S(=O)(=O)c2cccc3cccnc23)C1 (configuration not stated) | 0% | -47 | 4 | 0.4 | 9 | Arbovirus inh repeat=8
CC(NC(=O)CCl)c1ccccc1Br (configuration not stated) | 39% | / | 97 | 24 | /

Among those listed so far, two have a nitro group on carbon.
SMILES | Mtb H37Rv | YopH PTP inh | Mtb bLac sens | RecA intein inh | Arbovirus inh | others
CCN(CC)S(=O)(=O)c1ccc(N2CCN(c3cccc(OC)c3)CC2)c([N+](=O)[O-])c1 | 5% | -24 | 3 | 4.1 | 7
CN1CCCN(c2ccc([N+](=O)[O-])cc2)CC1 | 0% | / | -7 | 1.6 | -9

A run of entries taken from the entries so far, as a working copy:
SMILES | Mtb H37Rv | YopH PTP inh | Mtb bLac sens | RecA intein inh | Arbovirus inh | others
COCCNC(=O)NC(=O)CN1CCCc2ccccc21 | -4% | / | -8 | -3.6 | 21
COc1ccc(-n2nc(C(=O)NCC(=O)NCc3ccc(F)cc3)c3ccccc3c2=O)cc1 | / | / | 1 | 0.7 | /
O=C(Nc1nccs1)C1CCCN(S(=O)(=O)c2cccc3cccnc23)C1 (configuration not stated) | 0% | -47 | 4 | 0.4 | 9 | Arbovirus inh repeat=8
CC(NC(=O)CCl)c1ccccc1Br (configuration not stated) | 39% | / | 97 | 24 | /

The main list resumes, repeating the 2 entries before the break.
SMILES | Mtb H37Rv | YopH PTP inh | Mtb bLac sens | RecA intein inh | Arbovirus inh | others
O=C(Nc1nccs1)C1CCCN(S(=O)(=O)c2cccc3cccnc23)C1 (configuration not stated) | 0% | -47 | 4 | 0.4 | 9 | Arbovirus inh repeat=8
CC(NC(=O)CCl)c1ccccc1Br (configuration not stated) | 39% | / | 97 | 24 | /
Cc1c(C(=O)NCc2ccc(S(N)(=O)=O)cc2)oc2ccc(Cl)cc12 | -3% | / | 0 | / | 4
C#Cc1ccc([C@@H]2C=C(C(=O)NCc3nc4ccccc4[nH]3)O[C@H](OCC)[C@H]2CCCO)cc1 | -11% | / | -5 | 3.2 | /
CCOC(=O)c1ncccc1NC(=O)CC(=O)Nc1cccnc1C(=O)OCC | / | / | 3 | -1.0 | /
COc1ccc(C2C(C(=O)Nc3cc(C)on3)c3ccccc3C(=O)N2C)cc1 (configuration not stated) | -1% | -34 | 4 | 3.0 | 7 | Arbovirus inh repeat=0
C=C(C)CN(CC)CCC(=O)Nc1ccc(OC)cc1OC | 1% | -14 | -21 | -1.4 | 1
CCN(C1CCCCC1)S(=O)(=O)c1ccc(S(=O)(=O)NCc2ccncc2)cc1 | -1% | -7 | 29 | -1.5 | 4
C/C(=N\O)c1ccc(Cl)c(Cl)c1 | 7% | / | -2 | -3.8 | /
COc1ccc(CCNC(=O)C2Cc3ccccc3C(=O)O2)cc1 (configuration not stated) | 5% | / | -4 | / | -3
COc1cc(Br)c(CCNC(=O)c2ccco2)cc1OC | 3% | / | 90 | -0.1 | -4
OCCN1CCN(CC#CCn2c3ccccc3c3ccccc32)CC1 | -5% | -10 | -9 | 2.1 | -31
COc1cc(-c2nnc(-c3ccc(N4CCOCC4)cc3)o2)cc(OC)c1OC | 0% | -36 | 91 | 1.0 | 48*
CCOC(=O)c1sc2cccc(F)c2c1N | -9% | 10 | -11 | -0.4 | 5
Cc1cc(C)c2oc(C(=O)N(Cc3ccccc3)C3CCS(=O)(=O)C3)cc(=O)c2c1 (configuration not stated) | -1% | / | 0 | -2.3 | /
COc1ccc(-n2nc3c(c2NC(=O)CCl)CSC3)cc1 | / | / | 99 | 34* | /
COc1ccc(NC(=O)CCNS(=O)(=O)c2ccc3c(c2)c(=O)n(C)c(=O)n3C)cc1OC | -2% | / | -2 | -2.8 | 5
O=C(O)c1cc(-n2cccc2)ccc1N1CCOCC1 | -5% | / | -2 | -0.3 | /
O=C(Nc1cccc2ccccc12)OCc1cncs1 | -3% | / | 6 | 1.7 | 5
O=C(Cn1cnc2ccccc21)N/N=C/c1ccccc1[N+](=O)[O-] | -3% | -20 | 1 | -1.6 | -9
CCN1CCCCC(=N/O)/C(=N/O)CCCC1 | / | / | -3 | -1.4 | /
COc1cc(/C=C2\CCc3ccccc3C2=O)cc(OC)c1OC | 8% | -25 | 46 | 11 | -24
CCCCN1CC[C@H]2C=CC[C@@H](C(=O)Nc3ccc(Cl)c(C(F)(F)F)c3)[C@H]2C1=O | 7% | / | -9 | 1.6 | /
C/C(CCc1ccco1)=N/NC(=O)CCC(=O)Nc1ccc(Br)cc1 | -4% | -14 | 6 | 1.6 | -11
CCOC(=O)NC(=O)/C(C#N)=C\Nc1sccc1C(=O)OC | 1% | / | -7 | 0.3 | 2
CC1CCN(C(=O)C2CCCN(S(C)(=O)=O)C2)CC1 (configuration not stated) | -6% | -39 | 2 | -0.8 | 3
CCOC(=O)C(CCSC)NC(=O)CN (configuration not stated) | -2% | -43 | 4 | / | 5
CC1(C)CC(n2[nH]c(=O)c3c2NC(=O)CSC3c2ccc(F)cc2)CCO1 (configuration not stated) | -7% | 0 | -4 | -1.6 | 7 | Arbovirus inh repeat=5
CCC/C(O)=C1\C(=O)CCCC1=NCCc1c(C)[nH]c2ccccc12 | -1% | / | 1 | -1.4 | /
O=C(OCC(=O)N1CCCc2ccccc21)c1cncc(Br)c1 | -11% | -22 | -4 | 2.6 | 5
CC(C)C(NC(=O)CN1C(=O)c2cccc3cccc1c23)C(C)C | / | / | -7 | -17 | /
CC1CC(C)CN(CC(C)(C)NS(=O)(=O)c2ccc(Cl)cc2)C1 (configuration not stated) | 2% | 5 | -4 | -1.0 | -2
C=CCc1c(C)nc(N)[nH]c1=O | 4% | -14 | 0 | 3.5 | 4
O=C(O)CCC(=O)NNC(=O)COc1ccc2ccccc2c1Br | -3% | / | -3 | 1.6 | 8
Cc1ncsc1CCOC(=O)c1ccc(N2CCOCC2)c([N+](=O)[O-])c1 | 3% | / | -1 | -1.4 | 10
O=C(N/C=C/c1ccc(Cl)cc1)NCc1ccc(Cl)cc1 | -5% | -8 | -10 | 6.8 | -6
Cc1cc(C(=O)Nc2sc3c(c2C#N)CCCCC3)cs1 | 13% | -38 | 16 | -0.8 | 2
Cc1ccc(COC(=O)c2nn(-c3ccccc3)nc2N)cc1 | -5% | / | -8 | -0.9 | -7
CCCCOc1ccc(N(CC(=O)NCc2ccccc2)C(=O)c2csnn2)cc1 | / | / | 3 | -0.2 | /
COc1cccc(CNC(=O)C(=O)N2CCC3(CC2)OCCN3S(=O)(=O)c2ccc(C)cc2)c1 | / | / | -15 | 3.5 | /
CCCCSc1nc2sc3c(c2c(=O)[nH]1)CCC3 | -4% | -6 | 0 | -0.9 | 6
Cc1ccc(C2=NS(=O)(=O)N(C)C(C(=O)NCc3ccccn3)=C2)cc1 | / | / | 4 | -4.5 | /
Cn1c(C(=O)OC(C(=O)NCc2ccco2)c2ccncc2)cc2sccc21 (configuration not stated) | 4% | -24 | -4 | 2.2 | -2
COc1cc(CN2CCCC(C(=O)c3sccc3C)C2)cc(OC)c1O (configuration not stated) | 2% | / | -6 | -5.2 | 2
CCCn1c(=N)c(C(=O)NC2CCCC2)cc2c(=O)n3cccc(C)c3nc21 | 0% | 6 | -11 | i | 0
O=C(CN1C(=O)NC(c2ccccc2)(c2ccccc2)C1=O)c1c[nH]c2ccccc12 | 10% | / | -6 | 8.0 | -8
Cc1cc(C)cc(Oc2cc(NC(=O)c3cn(C)nc3C)cc([N+](=O)[O-])c2)c1 | -4% | -10 | -4 | -0.5 | 2
COc1ccc(C2N(c3cccc(Cl)c3)C(=O)C3CCCN32)cc1 (configuration not stated) | -3% | -4 | -7 | 2.9 | -6 | Arbovirus inh repeat=6
CN(C)CCN=Cc1c(O)n(Cc2ccccc2)c(=O)c2ccccc12 | -2% | / | -11 | -3.8 | 23
Cc1ccc(-c2n[nH]c(=S)n2/N=C/C=C\c2ccccc2[N+](=O)[O-])cc1 | 18% | -7 | -2 | 1.4 | 2
C=CCOC(=O)C1=C(C)NC(SCC(=O)Nc2nccs2)=C(C#N)C1c1ccc(Cl)cc1 (configuration not stated) | -2% | -107 | 33 | 5.1 | -17
CCOC(=O)C1=NN(C(C)=O)C2(CC(=O)N(c3cccc(C)c3)C2=O)C1 (configuration not stated) | -11% | -19 | 2 | -0.1 | -5

(list continues)
SMILES | Mtb H37Rv | YopH PTP inh | Mtb bLac sens | RecA intein inh | Arbovirus inh | others
COc1cccc(Cn2nnc(C(=O)NCc3ccc(F)cc3)c2N)c1 | 5% | -22 | 4 | 1.5 | 0 | Arbovirus inh repeat=2
CCOC(=O)c1cc2cc(OC)ccc2[nH]1 | -3% | 6 | -7 | 4.6 | 16
O=C(C1CC(=O)N(c2ccc(F)cc2)C1)N1CCCCC1 (configuration not stated) | / | / | 1 | -1.1 | /
COc1cc([N+](=O)[O-])ccc1NC(=O)CSc1ccccn1 | -2% | / | 4 | 5.5 | 4
C=CCc1c(C)nc(-c2ccccc2)nc1N/N=C/c1ccccc1 | -6% | -28 | 12 | -2.4 | 13

This is a subset. The share of hits here may be higher or lower than overall.
